ALR inh – blocks human ALR sulfhydryl oxidase activity; P55789; purified ALR, DTT oxidation, H2O2 HRP-luminol luminescence; inhibition, % (concentration not given with the values); 3.8% of 290,000 active; AID 485317;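 active = mean and each replicate at 75% or more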;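 also: stock transfer was 7.5 nL into about 7.5 µL; 0% = neutral wells and 100% = wells with inactivated enzyme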
Target sequence (P55789 whole entry, looked up): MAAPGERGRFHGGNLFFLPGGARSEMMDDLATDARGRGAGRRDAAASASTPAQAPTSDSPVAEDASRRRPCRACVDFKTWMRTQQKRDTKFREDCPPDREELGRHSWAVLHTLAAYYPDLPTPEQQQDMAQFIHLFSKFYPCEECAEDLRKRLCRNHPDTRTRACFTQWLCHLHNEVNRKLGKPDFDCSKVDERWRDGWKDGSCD
HNF4A DNA FP – change in binding of human HNF4 alpha to DNA. P41235. HNF4a-FITC DNA binding, fluorescence polarization, 1 h. activity change, % at 10 µM. 0.3% of 360,000 active; in the data active = activity change above about 30%, passing the limit was not always enough;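 also: controls were the assay level and a saturating level of protein; the project sought stronger binding though the title names inhibitors; some compounds called inactive have numbers as strong as hits; positive values seem to mean higher polarization but the record does not say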
Target sequence (P41235 whole entry, looked up): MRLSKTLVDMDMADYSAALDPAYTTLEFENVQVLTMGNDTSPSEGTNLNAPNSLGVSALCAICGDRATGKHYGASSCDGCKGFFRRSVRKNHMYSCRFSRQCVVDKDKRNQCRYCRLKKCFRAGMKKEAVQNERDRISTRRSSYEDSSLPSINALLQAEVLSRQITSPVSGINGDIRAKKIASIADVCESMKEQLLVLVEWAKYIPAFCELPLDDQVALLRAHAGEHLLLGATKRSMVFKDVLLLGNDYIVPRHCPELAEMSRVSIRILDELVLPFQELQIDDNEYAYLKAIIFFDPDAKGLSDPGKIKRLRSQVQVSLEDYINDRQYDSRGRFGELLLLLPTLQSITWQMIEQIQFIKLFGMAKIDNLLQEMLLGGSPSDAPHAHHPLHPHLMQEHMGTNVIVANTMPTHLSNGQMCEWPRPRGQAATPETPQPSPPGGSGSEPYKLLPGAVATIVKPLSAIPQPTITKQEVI
Beta2AR agonist – human beta-2 adrenergic receptor agonism by FAP; Am2.2-beta2AR cells, FAP receptor internalization, flow cytometry; reference of the scale not given here; AID 504454; response, % (no concentration beside the values); 0.43% of 340,000 active;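 active = response above a set limit, near 3 SD of response in nonfluorescent compounds, cut at about 42% in these data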;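 also: stock transfer was 100 nL into about 11 µL; a reference agonist was the positive control; negative values mostly stem from fluorescent compounds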
Target sequence (P07550 whole entry, looked up): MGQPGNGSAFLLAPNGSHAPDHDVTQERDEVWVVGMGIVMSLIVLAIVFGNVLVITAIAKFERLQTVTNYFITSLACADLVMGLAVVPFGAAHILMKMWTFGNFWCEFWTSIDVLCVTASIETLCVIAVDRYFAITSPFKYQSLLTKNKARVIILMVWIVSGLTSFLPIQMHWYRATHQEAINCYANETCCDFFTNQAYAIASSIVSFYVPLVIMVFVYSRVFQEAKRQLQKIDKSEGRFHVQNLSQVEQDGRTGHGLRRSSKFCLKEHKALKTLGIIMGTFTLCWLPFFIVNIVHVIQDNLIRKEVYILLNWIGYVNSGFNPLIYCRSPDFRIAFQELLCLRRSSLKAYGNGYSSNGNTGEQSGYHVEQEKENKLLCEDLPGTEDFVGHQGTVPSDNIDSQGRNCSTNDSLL
Ecoli rRNA inh – selective bacterial rRNA inhibition in E. coli | E. coli WT GFP vs humanized-ribosome RFP mutants, fluorescence, 24 h; hits give low values; DMSO median 0, no signal -100 | GFP signal change (wild-type ribosome), % (test concentration not listed) | 1.6% of 350,000 active | AID 720706;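 active = significant combined selectivity score with lowered wild-type GFP, culture density cut under 30%, mutant RFP and density less affected; inactive = any of these conditions unmet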; also: one replicate is shown; some compounds called inactive have numbers as strong as hits
FGF22 binding – FGF22 (human) thermal shift binding; recombinant FGF22 thermal shift, SYPRO orange fluorescence; percent of sucrose octasulfate shift, DMSO zero; calls only at 9.99 µM; 1.5% of 340,000 active;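 active = melting point raised past a set limit in the mean and every replicate; three in four hits are not shown here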
UCH37 DUB inh – blocks the human deubiquitinase UCH37. Q9Y5K5. purified proteasome/UCH37, Ub-AMC cleavage fluorescence. inhibition, % (concentration not given with the values). 0.33% of 330,000 active. AID 588478;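 active = mean of two replicates above 20%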;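 also: 0% = compound-free wells with enzyme and 100% = wells lacking proteasome; stock transfer was 100 nL into about 20 µL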
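system = Proteasome-associated human UCH37 deubiquitinase | amount = 0.15 nM proteasome as dispensed | medium = pH 7.4 Tris-HCl (50 mM) with ovalbumin, ATP-MgCl2, DTT | incubation = 30 min preincubation with enzyme, 25 min cleavage at room temperature | detection = AMC fluorescence 355/460 nm | read-out basis = percent inhibition | controls = no-proteasome and no-compound wells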
E coli growth – blocks Escherichia coli growth. OD600, 23 h; hits give low values. OD600 absorbance (test concentration not listed). 0.21% of 330,000 active. AID 1053175;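 active = OD600 absorbance below the run mean of sample wells minus 3.6 SD, in any replicate, cut at about 0.56 in these data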;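 also: stock transfer was 300 nL into about 60 µL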
Ecoli rRNA inh OD600 – recorded beside Ecoli rRNA inh, whose call it bears; OD600 change, %; measured here: OD600 growth;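 optical density of the mix in the first replicate; 0 = DMSO median and -100 = no signal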
Ecoli rRNA inh RFP – recorded beside Ecoli rRNA inh, whose call it bears; RFP signal change, %; measured here: RFP humanized mutant strains;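 first replicate; 0 = DMSO median and -100 = no signal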
The depositor's hits bear a star; i = inactive; nt = not tested or not shown; & = joins results of further samples.

SMILES	ALR inh	HNF4A DNA FP	Beta2AR agonist	Ecoli rRNA inh	Ecoli rRNA inh OD600	Ecoli rRNA inh RFP	FGF22 binding	UCH37 DUB inh	E coli growth
CC(=O)c1cn(CC(=O)Nc2c(C)cccc2C)c2ccccc12	-16	2.4	-1	nt	nt	nt	nt	6.8	0.66
C/C=C/C(=O)OCC(=O)NC(=O)NC(C)C	-12	1.1	-16	nt	nt	nt	nt	4.7	0.73
Nc1nonc1C(=O)N/N=C/c1cccc([N+](=O)[O-])c1	-3	3.7	-10	5	10	1.1	i	nt	nt
CCOC(=O)CC(NC(=O)CCS(=O)(=O)c1ccc2c(c1)n(C)c(=O)c(=O)n2C)c1ccc(C)cc1 (configuration not stated)	-1	7.0	-12	12	12	-0.3	i	-10	0.69
COC(=O)C1=C(C)OC(N)=C(C#N)C1c1cc(OC)c(OCC(N)=O)cc1Cl (configuration not stated)	-10	-1.1	3	nt	nt	nt	nt	2.7	0.69
O=C(c1cccc(C(F)(F)F)c1)N1CCC(O)(CS(=O)(=O)Cc2ccccc2)CC1	-16	-5.0	-4	nt	nt	nt	nt	-1.0	0.67
O=C(Cc1ccc(-c2ccccc2)cc1)NCCN1CCOCC1	-7	2.3	-6	nt	nt	nt	nt	-0.6	0.69
CCN(CC)CC(=O)Nc1cccc(S(=O)(=O)N2CCCC2)c1	-17	2.7	-8	2	-1	4.5	i	3.8	0.65
CCOc1ccc(S(=O)(=O)N2Cc3ccccc3CC2C(=O)O)cc1 (configuration not stated)	0	-1.7	-2	0	3	-2.1	i	3.1	0.72
CC(Sc1nc(N)cc(N)n1)C(=O)Nc1ccc(N2CCOCC2)cc1 (configuration not stated)	62	-4.4	2	0	-13	1.2	i	3.0	0.7
CC(/C=N/NC(=O)C(O)c1ccccc1)=C\c1ccccc1 (configuration not stated)	-28	-2.7	-4	-11	-6	-6.4	i	nt	nt
Nn1c(=O)[nH]c2c([nH]c3ccccc32)c1=O	2	9.0	-3	7	5	0.7	i	-47	0.67
O=C(CCC(=O)N1CCN(c2ccccc2F)CC1)c1ccc(Cl)s1	4	10	11	-23	-26	-5.0	i	1.2	0.67
COc1ccc(S(=O)(=O)N2Cc3ccccc3CC2C(=O)O)cc1 (configuration not stated)	-4	-17	0	3	6	-1.8	nt	2.7	0.72
Cc1cccc2nc(Cn3c(=O)n(CCC(=O)NCc4ccco4)c(=O)c4sccc43)cc(=O)n12	nt	5.5	-6	nt	nt	nt	nt	-13	0.74
CCOC(=O)[C@H]1[C@H]2COc3ccc(Cl)cc3[C@@H]2N2C(=O)c3cc(F)c(F)cc3NC(=O)[C@@]12C	nt	-0.2	9	-12	-15	-7.1	i	1.5	nt
c1ccc(CC(Cc2ccccc2)c2ccccn2)cc1	nt	4.4	-5	nt	nt	nt	i	-0.1	0.67
CCC(C)[C@H](NC(=O)NCc1cccc(OC)c1)C(=O)O (some centres not stated)	-19	-1.1	2	nt	nt	nt	nt	2.6	0.69
Cc1cc(NC(=O)c2cc3nc(C4CC4)cc(C(F)(F)F)n3n2)no1	-9	-1.0	-15	nt	nt	nt	nt	-2.7	0.7
O=C(O)CCC(=O)N1CCOc2ccc(Cl)cc21	11	1.2	-6	nt	nt	nt	nt	-0.2	0.75
O=C(NCCc1ccccn1)c1cc(-c2ccc(Cl)cc2)nc2ccccc12	-2	3.0	8	-12	-3	3.8	i	nt	nt
CC12CCC(C(=O)N(c3ccccc3Cl)C1=O)C2(C)C (configuration not stated)	-12	5.8	-1	10	14	-0.1	i	-1.2	0.67
CC(C)NC(=O)NC(=O)COc1ccc(Br)cc1Br	-3	3.8	-1	-10	-11	-8.1	i	5.9	0.69
CCOCCn1c(=O)c2c(nc3n2CCN3c2ccc(C)cc2)n(C)c1=O	-5	nt	-5	0	2	-4.0	i	4.2	0.66
CCSCCCn1[nH]c2ccccc2c1=O	nt	-0.5	nt	-7	-16	3.7	i	nt	nt
Next part.
SMILES	ALR inh	HNF4A DNA FP	Beta2AR agonist	Ecoli rRNA inh	Ecoli rRNA inh OD600	Ecoli rRNA inh RFP	FGF22 binding	UCH37 DUB inh	E coli growth
C[C@@H]1CN([C@@H](C)CO)C(=O)c2cc(Br)cnc2O[C@H]1CN(C)C(=O)Nc1ccc(F)cc1	nt	-4.6	nt	3&0	1&6	3.6&-4.6	i	nt	nt
CN(C)c1cc(NC(=O)CNC(C)(C)CC(C)(C)C)c2ccccc2n1	-4	0.5	-1	12	7	-4.5	i	-29	0.64
C[C@@H](O)CNC(=O)c1[nH]cnc1C(=O)Nc1cccc(Cl)c1	nt	-4.3	nt	3	14	-2.1	i	nt	nt
CN(C)Cc1cn(CC[C@@H]2CC[C@@H](NC(=O)Nc3ccccc3F)[C@@H](CO)O2)nn1	nt	6.3	nt	-1&10	-2&10	-1.1&-0.3	i	nt	nt
COc1ccc(Nc2oc(COc3ccccc3F)nc2C#N)cc1	nt	4.9	-1	-7	10	3.6	i	3.8	0.73
Cc1cccc(OCc2nnc(SCC(=O)N3CCN(c4ccccc4)CC3)o2)c1C	nt	0.1	-4	nt	nt	nt	nt	1.1	0.7
CC(C)c1cc(C(F)(F)F)nc(NNc2nc(C(C)C)cc(C(F)(F)F)n2)n1	nt	1.5	nt	-3	0	2.3	i	nt	nt
Cc1ccccc1-n1nc2c(c1NC(=O)/C=C\c1ccc3c(c1)OCO3)CSC2	1	1.6	-4	2	-2	5.8	i	-1.4	0.74
COc1ccc(CC(=O)N2CCN(c3ccc(F)cc3)CC2)cc1	36	-0.7	1	1	-2	-1.7	i	0.6	0.67
Cc1ccc(S(=O)(=O)n2nc(-c3ccco3)nc2N)cc1	-3	1.2	-2	-8	-5	-7.1	i	2.4	0.72
CCc1cccc(C)c1NC(=S)NCC(c1cccnc1)N1CCOCC1 (configuration not stated)	4	2.4	0	nt	nt	nt	nt	-0.3	0.61
Cc1ccc(-c2nnc(SCC(=O)N/N=C/c3ccccc3C(=O)O)n2C2CCCCC2)cc1	8	-1.4	1	-7	-8	0.5	i	nt	nt
Cc1ccc(SCCCn2cnc3ccccc3c2=O)cc1	-20	0.3	-20	nt	nt	nt	nt	2.1	0.68
CCOC(=O)C1=NN(c2ccc(C)cc2)CC1C(=O)OC (configuration not stated)	-9	1.6	3	-6	-8	5.8	i	-20	0.68
Clc1ccc(N2CCN(/N=C/c3cccnc3)CC2)cc1	-12	-2.2	5	8	4	0.3	i	nt	nt
O=C(NCCCc1ccccc1)c1ccccc1O	13	7.5	-4	nt	nt	nt	nt	-7.1	0.61
COC(=O)c1cc(S(=O)(=O)NCC2CCN(Cc3ccc(F)cc3)CC2)c[nH]1	-3	0.9	7	8	8	-2.0	i	2.5	0.67
CCc1c(C)sc(NC(=O)c2cc(-c3ccco3)on2)c1C#N	35	-3.2	-5	nt	nt	nt	nt	-26	0.74
O=C1C2C3C=CC(C3)C2C(=O)N1c1ccc(S(=O)(=O)Nc2nccs2)cc1 (configuration not stated)	-6	-3.1	-7	9	11	-0.1	i	1.2	0.68
N#CCC(=O)Nc1ccc(C(=O)OCC(=O)NC(=O)Nc2ccc3c(c2)OCCO3)cc1	99*	9.7	-2	0	4	4.4	i	-2.2	0.68
NS(=O)(=O)c1ccc(Nc2nc(-c3cccnc3)cs2)cc1	-5	-1.9	10	10	7	-2.6	i	-0.2	0.7
O=C1NC(=S)/C(=C\c2ccc(-c3ccccc3Cl)o2)S1	nt	-34	20	nt	nt	nt	nt	9.0	0.71
COc1ccc(NC(=O)C(NC(=O)Cc2cccs2)c2ccccc2)cc1 (configuration not stated)	-3	-3.1	0	13	10	7.9	i	0.3	0.7
CCN(CC)CCN(C(=O)c1ccc2c(c1)OCCO2)c1nc2ccc(C)cc2s1	-8	2.1	5	11	9	0.6	i	2.4	0.64
CCOc1ncccc1C(=O)OCC(=O)c1ccc(C)c(C)c1	nt	-1.5	4	-6	-22	-2.7	i	1.9	0.71
Following part:
SMILES	ALR inh	HNF4A DNA FP	Beta2AR agonist	Ecoli rRNA inh	Ecoli rRNA inh OD600	Ecoli rRNA inh RFP	FGF22 binding	UCH37 DUB inh	E coli growth
COc1ccc(NC(=O)c2cccnc2)cc1	-13	-3.2	3	0	7	0.7	i	0.3	0.63
O=C(CC1C(=O)NCCN1Cc1ccc(F)c(F)c1)NCCCn1ccnc1 (configuration not stated)	-19	1.2	0	18	10	0.7	i	-6.9	0.64
CCCCCCCC(=O)OC(CN1CCCCC1)CN1CCCC1=O (configuration not stated)	-5	-2.5	6	7	6	-7.9	i	1.8	0.64
CCCCCCc1c(C)nc(-n2[nH]c(C)c(CCO)c2=O)[nH]c1=O	86*	-1.9	0	-30	-46	-1.1	i	4.1	0.69
O=C(Nc1ccccc1)Nc1cccc(Cl)c1Cl	nt	3.4	-4	nt	nt	nt	nt	2.3	0.6
Cc1cc(C(=O)COC(=O)c2ccc([N+](=O)[O-])o2)c(C)n1CC1CCCO1 (configuration not stated)	-251	-0.6	2	-1	7	-1.1	i	7.1	0.69
COc1ccc(C(=O)C2CCN(C(=O)Nc3ccccc3C)CC2)cc1	-2	1.0	-2	-2	-3	-0.5	i	2.2	0.7
O=[N+]([O-])c1cccc(S(=O)(=O)Nc2ccc(S(=O)(=O)NCC3CCCO3)cc2)c1 (configuration not stated)	-5	-0.7	12	3	4	2.2	i	2.6	0.71
CCC(C)NC(=O)c1cc(S(=O)(=O)N2CCCCC2)c[nH]1 (configuration not stated)	-6	0.1	-1	8	12	1.1	i	3.7	0.68
CCN(CCCNC(=O)c1[nH]c(C)c(C(C)=O)c1C)c1ccccc1	89*	2.0	-1	nt	nt	nt	nt	2.7	0.62
Cc1[nH]nc(N2CCCCC2)c1[N+](=O)[O-]	-16	1.5	8	nt	nt	nt	nt	4.7	0.69
CC1CCCC(NC(=O)c2cccc(S(=O)(=O)N3CCCCC3)c2)C1C (configuration not stated)	-10	3.2	-3	2	3	-2.6	i	-2.3	0.7
CCNC(=O)CCn1nc(-c2ccc(Cl)cc2)c2ccccc2c1=O	-8	-0.1	-59	nt	nt	nt	nt	-0.1	0.73
CCC(c1nnc(SCC(=O)Nc2ccc(Cl)cc2C(F)(F)F)n1C1CCCCC1)N(C)C (configuration not stated)	-2	1.3	-8	nt	nt	nt	nt	-0.3	0.68
CNC(=O)c1ncnnc1N(C)C(=O)NCc1ccccc1	-1	4.8	-1	nt	nt	nt	nt	3.7	0.67
CC1=C(OC(=O)c2ccccc2)C(C)(C)C(c2ccccc2)OC1=O (configuration not stated)	-10	0.1	6	nt	nt	nt	nt	1.2	0.78
COc1ccc(NC(=O)C2(N(C(=O)Cn3nnnc3N)c3ccc(OC)cc3)CCCCC2)cc1	-8	4.7	0	8	9	0.8	i	2.0	0.68
CC1=CC(C)(C)N(S(=O)(=O)c2ccc(C)cc2)c2ccccc21	-3	0.7	16	nt	nt	nt	nt	5.2	0.66
CC(OC(=O)c1cccc(N2C(=O)c3ccccc3C2=O)c1)C(=O)Nc1ccc(N(C)C)cc1 (configuration not stated)	2	1.7	9	7	6	-0.1	i	2.4	nt
Nn1c(SCc2nc3ccccc3[nH]2)nnc1-c1ccccc1	0	-0.6	-5	nt	nt	nt	nt	-2.1	0.68
CC1Cc2ccccc2N1CC(=O)NC(=O)NC1CCCC1 (configuration not stated)	-19	-7.9	-4	-2	-12	36	i	0.2	0.71

At a glance, 2 of the compounds above:
SMILES	ALR inh	HNF4A DNA FP	Beta2AR agonist	Ecoli rRNA inh	Ecoli rRNA inh OD600	Ecoli rRNA inh RFP	FGF22 binding	UCH37 DUB inh	E coli growth
COc1ccc(NC(=O)c2cccnc2)cc1	-13	-3.2	3	0	7	0.7	i	0.3	0.63
O=C(CC1C(=O)NCCN1Cc1ccc(F)c(F)c1)NCCCn1ccnc1 (configuration not stated)	-19	1.2	0	18	10	0.7	i	-6.9	0.64

Not all compounds are listed; the hit share may differ from the screen's.
